# Bioassay records: PubChem BioAssay, several laboratories
# HNF4A DNA FP = change in binding of human HNF4 alpha to DNA | HNF4a-FITC DNA binding, fluorescence polarization, 1 h | P41235 | activity change, % at 10 µM | actives 0.3% (n = 360,000) | AID 1224865; in the data active = activity change above about 30%, passing the limit was not always enough;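 also: controls were the assay level and a saturating level of protein; the project sought stronger binding though the title names inhibitors; some compounds called inactive have numbers as strong as hits; positive values seem to mean higher polarization but the record does not say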
# FGF22 binding = binders of recombinant human FGF22 by thermal shift | Q9HCT0 | SYPRO orange fluorescence; percent of sucrose octasulfate shift, DMSO zero | calls only at 9.99 µM | actives 1.5% (n = 340,000) | AID 651658;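 active = melting point raised past a set limit in the mean and every replicate; inconclusive = no clear call; three in four hits are not shown here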
# Target sequence (Q9HCT0 whole entry, looked up): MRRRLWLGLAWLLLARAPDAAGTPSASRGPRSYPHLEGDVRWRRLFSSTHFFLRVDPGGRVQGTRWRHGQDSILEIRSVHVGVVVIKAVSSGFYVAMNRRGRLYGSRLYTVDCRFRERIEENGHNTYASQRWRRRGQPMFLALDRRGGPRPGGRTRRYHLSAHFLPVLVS
# Ecoli growth = blocks Escherichia coli growth; OD600, 23 h; stronger effect = lower value; OD600 absorbance (concentration not given with the values); actives 0.21% (n = 330,000); AID 1053175;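 active = OD600 absorbance below the run mean of sample wells minus 3.6 SD, in any replicate, cut at about 0.56 in these data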;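 also: stock transfer was 300 nL into about 60 µL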
# B2AR ag = activates human beta-2 adrenergic receptor causing internalization. P07550. Am2.2-beta2AR cells, FAP receptor internalization, flow cytometry; reference of the scale not given here. response, % (concentration not given with the values). actives 0.43% (n = 340,000). AID 504454;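 active = response above a set limit, near 3 SD of response in nonfluorescent compounds, cut at about 42% in these data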;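 also: stock transfer was 100 nL into about 11 µL; a reference agonist was the positive control; negative values mostly stem from fluorescent compounds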
# Target sequence (P07550 whole entry, looked up): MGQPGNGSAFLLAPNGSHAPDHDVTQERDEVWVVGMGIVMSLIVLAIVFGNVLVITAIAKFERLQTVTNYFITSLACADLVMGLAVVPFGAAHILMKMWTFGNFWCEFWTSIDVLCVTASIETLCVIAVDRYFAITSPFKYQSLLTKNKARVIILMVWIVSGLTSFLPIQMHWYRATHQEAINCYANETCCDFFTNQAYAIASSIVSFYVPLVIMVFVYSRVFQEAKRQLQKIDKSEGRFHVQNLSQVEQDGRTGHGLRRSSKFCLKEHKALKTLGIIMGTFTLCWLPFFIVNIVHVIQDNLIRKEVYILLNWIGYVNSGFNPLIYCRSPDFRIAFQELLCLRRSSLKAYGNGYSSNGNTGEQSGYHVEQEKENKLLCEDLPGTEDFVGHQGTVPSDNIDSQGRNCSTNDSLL
# ALR inh = blocks human ALR sulfhydryl oxidase activity. P55789. purified ALR, DTT oxidation, H2O2 HRP-luminol luminescence. inhibition, % (no concentration beside the values). actives 3.8% (n = 290,000). AID 485317;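 active = mean and each replicate at 75% or more; inconclusive = only one of the two met; inactive = neither met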;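 also: stock transfer was 7.5 nL into about 7.5 µL; 0% = neutral wells and 100% = wells with inactivated enzyme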
# UCH37 DUB inh = blocks the human deubiquitinase UCH37; Q9Y5K5; purified proteasome/UCH37, Ub-AMC cleavage fluorescence; inhibition, % (test concentration not listed); actives 0.33% (n = 330,000);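 active = mean of two replicates above 20%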;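 also: 0% = compound-free wells with enzyme and 100% = wells lacking proteasome; stock transfer was 100 nL into about 20 µL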
# Target sequence (Q9Y5K5 whole entry, looked up): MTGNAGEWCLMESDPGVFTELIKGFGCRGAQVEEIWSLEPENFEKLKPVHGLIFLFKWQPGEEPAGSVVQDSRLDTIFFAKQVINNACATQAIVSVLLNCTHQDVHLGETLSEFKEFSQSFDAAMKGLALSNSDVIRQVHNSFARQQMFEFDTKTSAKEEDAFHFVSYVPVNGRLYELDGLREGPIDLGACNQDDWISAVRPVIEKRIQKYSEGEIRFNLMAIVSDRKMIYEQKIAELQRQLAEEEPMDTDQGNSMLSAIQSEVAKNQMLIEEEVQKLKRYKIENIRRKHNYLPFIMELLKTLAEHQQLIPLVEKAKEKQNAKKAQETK
#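 Material: Human UCH37 enzyme supplied as purified proteasome complex | Schedule: 30 min compound-proteasome preincubation then 25 min substrate reaction, room temperature | Detection: AMC fluorescence from Ub-AMC cleavage, excitation 355 nm, emission 460 nm | Benchmarks: Wells without proteasome as full block, compound-free enzyme plus substrate as uninhibited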
# rRNA inh HTS = selective bacterial rRNA inhibition in E. coli; AID 720706; actives 1.6% (n = 350,000); GFP signal change (wild-type ribosome), % (no concentration beside the values); E. coli WT GFP vs humanized-ribosome RFP mutants, fluorescence, 24 h; stronger effect = lower value; DMSO median 0, no signal -100;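 active = significant combined selectivity score with lowered wild-type GFP, culture density cut under 30%, mutant RFP and density less affected; inactive = any of these conditions unmet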; also: one replicate is shown; some compounds called inactive have numbers as strong as hits
# rRNA inh HTS OD600 = further read-out of rRNA inh HTS, marked with its call; OD600 change, %; measured here: OD600 growth;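 optical density of the mix in the first replicate; 0 = DMSO median and -100 = no signal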
# rRNA inh HTS RFP = further read-out of rRNA inh HTS, marked with its call; RFP signal change, %; measured here: RFP humanized mutant strains;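 first replicate; 0 = DMSO median and -100 = no signal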
# * marks the source's active call; other numbers are inactive results; i = inactive; ? = inconclusive; . = not tested or not shown. Some of the compounds tested (hit frequency here may not be typical).
SMILES,HNF4A DNA FP,FGF22 binding,Ecoli growth,B2AR ag,ALR inh,UCH37 DUB inh,rRNA inh HTS,rRNA inh HTS OD600,rRNA inh HTS RFP
Clc1ccc(OCc2nnc(SCc3nc4ccccc4[nH]3)n2Cc2ccco2)cc1,9.1,.,0.66,111*,-1,-0.5,.,.,.
O=[N+]([O-])c1ccccc1/C=N\N1CCN(Cc2ccccc2Cl)CC1,-4.0,i,.,5,1,.,6,1,0.5
Cc1ccc(C)c(CN2CCC(CNC(=O)CCc3nnc4ccc(N5CCC(C)CC5)nn34)CC2)c1,-1.8,i,0.69,5,-1,7.8,3,3,8.1
c1ccc(-c2cn(CC3CCCCC3)nn2)cc1,0.9,i,.,-11,-2,6.0,6,8,0.1
Cc1ccc(C(=O)NC2CCN(C(=O)Nc3ccccc3Cl)CC2)cc1,4.7,i,0.66,-1,-3,4.5,1,-16,2.8
CCC(=O)Nc1ccc(-c2ccc(N3CCCCC3)nn2)cc1,5.1,i,0.66,-1,.,-1.0,-4,-10,-4.0
CCc1ccc(-c2cc(C(=O)NN3CCOCC3)c3ccccc3n2)cc1,1.1,.,0.71,-6,-7,-14,.,.,.
CCC1Oc2ccc(C)cc2N(CC(=O)NCc2cccc(OC)c2)C1=O (stereo not drawn),0.3,.,0.62,8,-1,-1.0,.,.,.
O=C(Nc1ccncc1)c1cccc(S(=O)(=O)N2CCCC2)c1,8.2,i,0.7,10,1,1.6,0,-1,-1.1
Cc1nnc(SCC(=O)Nc2nc(-c3ccccc3)cs2)n1N,6.7,.,0.7,-11,14,4.7,.,.,.
CCCn1c(SC2C(=O)CC(C)(C)CC2=O)nc2c1c(=O)n(C)c(=O)n2C,-4.5,.,0.72,-2,4,5.1,.,.,.
CCOC(=O)c1cnn(-c2ccccc2)c1-c1ccncc1,2.6,i,0.66,-4,-3,1.2,8,4,-0.7
O=[N+]([O-])c1ccc(Oc2ncccn2)cc1,0.7,i,0.63,-11,-3,1.4,20,6,1.6
Cc1ccc(NC(=O)c2noc3c2CCCCC3)cc1,-2.4,.,0.77,8,-2,-3.0,.,.,.
CC(=O)N[C@@H](C)C(=O)N1CCN(S(=O)(=O)c2ccc(Cl)cc2)CC1,-1.0,.,0.68,2,-2,4.1,11,14,5.2
CC1(C)N=C(c2cccs2)C(C)(C)N1O,-2.7,.,0.73,11,-1,-0.1,.,.,.
Nc1nc2ccc(Cl)cc2o1,-1.6,i,0.63,-3,.,1.3,-5,-16,20
O=C(CCCC(=O)N1CCN(c2cccc(Cl)c2)CC1)c1ccccc1,-1.8,i,0.73,-6,-3,4.6,-39,-66,-3.3
COc1ccc(NC(=O)CN2CCN(C(=S)NC3CCCC3)CC2)cc1,5.7,i,0.68,8,0,1.0,13,5,3.5
Cc1cccc(NC(=O)COc2cccc3c2CCN(C)C3=O)c1C,0.7,i,0.75,-8,-8,-2.1,-2,9,0.9
O=C(CN1C(=O)NC2(CCCCCCC2)C1=O)Nc1ccc(Br)cc1Br,1.9,i,0.64,-4,-6,2.2,-27,-66,1.7
Cc1ccc(NC(=O)/C=C/c2ccco2)nc1,-2.6,i,0.69,20,5,12,.,.,.
COc1cccc(CNC(=O)Cn2c(=O)oc3ccccc32)c1OC,-1.7,i,0.71,5,.,7.4,4,7,1.0
O=C(Nc1nc2c(s1)CCCC2)c1cccs1,1.6,.,0.7,-9,?,0.1,.,.,.
O=C(Nc1ccc(N2CCN(C(=O)c3ccco3)CC2)cc1)c1cc(Br)ccc1Cl,0.6,i,0.72,0,.,3.7,.,.,.
# Continued:
SMILES,HNF4A DNA FP,FGF22 binding,Ecoli growth,B2AR ag,ALR inh,UCH37 DUB inh,rRNA inh HTS,rRNA inh HTS OD600,rRNA inh HTS RFP
O=C(Cn1cc(C(F)(F)F)ccc1=O)NC(c1ccccc1)c1ccccc1,-2.8,i,0.64,-3,-14,-0.1,.,.,.
CCCOC(=O)C1[C@H]2C(=O)N(CCCOC)C[C@]23C=C[C@H]1O3 (stereo partly drawn),2.7,i,0.68,1,1,1.3,12,6,-6.9
Cc1c(C(=O)O)sc(=S)n1CCOc1ccccc1,-4.7,.,0.67,2,-1,2.4,.,.,.
CC(C)C[C@H]1CNC(=O)C(=O)N1C[C@H](Cc1ccc(O)cc1)NC(=O)Cc1ccccc1,-3.1,i,.,.,.,.,21,25,2.0
O=C(COc1ccccc1)NNC(=O)c1ccc(Cl)cc1,-1.2,i,0.69,-5,.,1.2,3,5,-2.8
Cc1ccc(-n2c(SCC(=O)Nc3cc(C)on3)nc3ccccc3c2=O)cc1,-1.5,.,0.69,6,-19,1.1,.,.,.
CC(=O)C1=C(C)NC(=O)NC1c1ccc2c(c1)OCO2 (stereo not drawn),0.1,i,0.67,4,-47,0.1,-2,2,1.8
CC(C)Cc1cc(C(=O)Nc2ccc3c(c2)OCO3)no1,3.7,i,0.69,1,-3,2.8,-1,7,0.1
COc1ccc(/C=N/N=C(\N)c2nonc2N)cc1,3.9,i,.,0,.,.,-2,-1,-1.4
COc1cc(NC(=O)c2ccccc2)ccc1NC(=O)c1cc2ccccc2o1,0.4,i,0.67,-5,-3,-109,11,20,1.7
O=C(NC1CC(=O)c2sccc21)c1ccc(Cl)cc1Cl (stereo not drawn),2.1,i,0.72,2,-1,0.9,1,-8,-1.0
CC(C)(Cl)C1Cc2cc3ccc(=O)oc3cc2O1 (stereo not drawn),-1.8,i,0.68,-14,-1,-229,11,4,2.8
COc1ccccc1CNC(=O)CN1C(=O)NC(c2ccccc2)(c2ccc(C)c(C)c2)C1=O (stereo not drawn),0.3,i,0.69,4,.,5.4,-3,-15,6.5
Cc1nc(-c2cccc(N)c2)cs1,0.9,i,0.72,0,99*,7.0,7,1,-6.5
CC(=O)c1c(C)[nH]c(C(=O)OCC(=O)Nc2ncc(Cl)c(C)c2Cl)c1C,-0.3,.,0.7,3,-5,2.2,.,.,.
CC(Oc1cccc(Br)c1)C(=O)NNC(=O)CCS(=O)(=O)c1ccccc1 (stereo not drawn),-4.2,i,0.69,1,-5,1.9,-15,-18,0.3
COc1ccc(C(=O)O/N=C(/c2ccccc2)c2ccncc2)cc1,-3.0,.,.,-4,-2,.,5,26,0.8
NNC(=O)c1nnn(-c2nonc2N)c1CN1CCCC1,1.6,i,0.68,2,71,1.1,18,11,1.1
C=CCN1C(=O)C(Cc2ccccc2Cl)SC1=Nc1ccc(C(=O)O)cc1 (stereo not drawn),-1.1,i,0.68,5,4,2.1,-5,-5,1.3
Cc1c(Br)c([N+](=O)[O-])nn1CC(=O)Nc1sc2c(c1C(=O)OC(C)C)CCC(C)C2 (stereo not drawn),-0.4,.,0.71,5,1,2.6,.,.,.
CCC(C)NC(=O)CSc1nc2ccsc2c(=O)n1NC(=O)c1ccccc1 (stereo not drawn),-1.0,.,0.68,-4,-4,6.2,.,.,.
COc1ccc(CCN(C)C(=O)CSc2nnc(-c3ccco3)o2)cc1OC,1.0,i,0.71,0,3,3.8,3,13,-2.5
Cc1ccc(-n2nc3ccc(NC(=O)c4cccc([N+](=O)[O-])c4C)cc3n2)cc1,2.3,.,0.72,8,1,0.5,.,.,.
CCN(CC1COc2ccccc2O1)C(=S)Nc1ccccc1 (stereo not drawn),-1.8,.,0.65,4,-4,-0.2,.,.,.
CCc1ccc(N2C(=O)CN(Cc3cc(OC)c(OC)c(OC)c3)C2=S)cc1,1.0,.,0.66,-3,2,1.4,.,.,.
# Continuation.
SMILES,HNF4A DNA FP,FGF22 binding,Ecoli growth,B2AR ag,ALR inh,UCH37 DUB inh,rRNA inh HTS,rRNA inh HTS OD600,rRNA inh HTS RFP
Cc1cc2c(cc1C)C(c1ccccc1OC(C)C)CC(=O)N2 (stereo not drawn),-4.6,i,0.69,12,-7,4.1,-47,-78,-11
O=C(CSCc1ccc(F)cc1)Nc1ccc(F)cc1,1.4,i,0.68,-3,.,2.3,-7,1,-3.2
CC(NCc1ccccc1OC1CCCC1)c1ccccc1 (stereo not drawn),0.8,i,0.64,11,-2,0.7,-7,-16,-5.0
C=CCc1ccc(OCCOCCOc2cccc3ccc(C)nc23)c(OC)c1,-1.2,.,0.68,4,-13,0.7,.,.,.
CSc1nnc2c3ccccc3n(CCc3ccccc3)c2n1,1.4,.,0.65,-8,-16,1.8,.,.,.
COCC(C)n1c(C)cc(C(=O)COC(=O)C2=NN(c3ccccc3)C(=O)CC2)c1C (stereo not drawn),0.8,.,0.68,-2,-26,3.0,.,.,.
NC(=O)c1ccsc1NC(=O)COC(=O)Cc1ccsc1,-2.7,.,0.64,0,59,4.7,.,.,.
O=C(CN1CCN(CN2C(=O)NC3(CCCCCC3)C2=O)CC1)Nc1ccc(F)cc1,-3.9,i,0.73,5,-3,6.2,11,18,1.2

# Ordered by heavy-atom count (lowest first): 9 of the compounds above.
SMILES,HNF4A DNA FP,FGF22 binding,Ecoli growth,B2AR ag,ALR inh,UCH37 DUB inh,rRNA inh HTS,rRNA inh HTS OD600,rRNA inh HTS RFP
O=C(CSCc1ccc(F)cc1)Nc1ccc(F)cc1,1.4,i,0.68,-3,.,2.3,-7,1,-3.2
NC(=O)c1ccsc1NC(=O)COC(=O)Cc1ccsc1,-2.7,.,0.64,0,59,4.7,.,.,.
CC(NCc1ccccc1OC1CCCC1)c1ccccc1 (stereo not drawn),0.8,i,0.64,11,-2,0.7,-7,-16,-5.0
Cc1cc2c(cc1C)C(c1ccccc1OC(C)C)CC(=O)N2 (stereo not drawn),-4.6,i,0.69,12,-7,4.1,-47,-78,-11
C=CCN1C(=O)C(Cc2ccccc2Cl)SC1=Nc1ccc(C(=O)O)cc1 (stereo not drawn),-1.1,i,0.68,5,4,2.1,-5,-5,1.3
CCc1ccc(N2C(=O)CN(Cc3cc(OC)c(OC)c(OC)c3)C2=S)cc1,1.0,.,0.66,-3,2,1.4,.,.,.
C=CCc1ccc(OCCOCCOc2cccc3ccc(C)nc23)c(OC)c1,-1.2,.,0.68,4,-13,0.7,.,.,.
Cc1c(Br)c([N+](=O)[O-])nn1CC(=O)Nc1sc2c(c1C(=O)OC(C)C)CCC(C)C2 (stereo not drawn),-0.4,.,0.71,5,1,2.6,.,.,.
COCC(C)n1c(C)cc(C(=O)COC(=O)C2=NN(c3ccccc3)C(=O)CC2)c1C (stereo not drawn),0.8,.,0.68,-2,-26,3.0,.,.,.
